Calb biofilm kill – clotrimazole potentiators killing C. albicans biofilm, primary screen, 4-compound mixtures; C. albicans biofilm persisters + clotrimazole, fluorescence viability; primary screen in compound mixtures of four per well; inhibition, % at 7.6 µM; 120,000 tested, 0.02% active; AID 1242, 2008;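 active = inhibition above 30.3% in the primary screen of four-compound pools, then above 30% when the compound was retested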;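 also: compounds exposed to preformed 24 h biofilms for 48 h; the number belongs to the whole pool; some results filed as inactive read as strong as hits; inactives centre near 12; 0% = biofilm with clotrimazole alone and 100% = kill control; retested singly at about 60 µM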
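Test system: C. albicans biofilms. Buffer or medium: RPMI/MOPS medium, pH 7.0. Timing: 48 h compound exposure at 37 °C. Technique: Alamar Blue fluorescence. Evaluation: percent inhibition of biofilm viability.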
Numbers without * were called inactive.

SMILES	Calb biofilm kill
CC(=O)Nc1ccc(-c2cc(C(=O)O)c3ccc(C)cc3n2)cc1	13
COc1ccc(C(=O)NC(Cc2ccc(OC(=O)c3ccc(OC)cc3)cc2)C(=O)O)cc1 (stereo not given)	14
Cc1cc(Cl)ccc1NC(=S)Nc1ccccn1	3
CCCCc1nc2cc(Cl)ccc2o1	13
CC1=Nc2ccccc2/C1=C/c1nc(-c2ccc(C)s2)oc1O	10
COc1cccc2cc(C(=O)Oc3ccc(NC(C)=O)cc3)c(=O)oc12	12
COc1ccc(C(=O)NCc2nnc(SCC(=O)Nc3nc4ccccc4s3)o2)cc1	15
Cc1cc(C)c2cc(CN(CCCN(C)C)C(=S)NCc3ccccc3)c(=O)[nH]c2c1	9
Cc1cc(C(=O)NNS(=O)(=O)c2ccc(C(C)(C)C)cc2)nn1C(C)(C)C	19
CC(NC(=O)c1cc(COc2ccc3ncccc3c2)on1)c1ccc(F)cc1 (stereo not given)	14
Cc1occc1-c1nnc(SCC(=O)O)n1-c1ccccc1	6
COC(=O)C1=C(N)OC2=C(C(=O)CCC2)C1c1cccnc1 (stereo not given)	20
O=C1NC(=Nc2ccc(F)cc2)CS1	1
COc1ccccc1N(CC(=O)Nc1c(C)n(C)n(-c2ccccc2)c1=O)S(=O)(=O)c1ccc(C)cc1	13
CC1CCN(CC(=O)N2c3ccccc3CC2C)CC1 (stereo not given)	16
CC(NC(=O)c1ccnn1C)C1CCCO1 (stereo not given)	-2
O=c1n(Cc2ccccc2)nc2n1-c1ccccc1SC2	10
COc1ccc(/C=N/NC(=O)c2cccc(NC(=O)c3ccc(Cl)cc3)c2)c(OC)c1	16
Cc1nnc(SCC(=O)NCC(=O)Nc2ccc(F)c(F)c2F)n1Cc1ccccc1	4
COc1ccc(C2C(C(C)=O)=C(Nc3ccccc3)CC(C)(O)C2C(C)=O)cc1OC (stereo not given)	15
COc1ccc(OCC(=O)NNC(=O)CCc2ccccc2)cc1	18
Cc1ccc(S(=O)(=O)NC(=O)Nc2cc(C(C)(C)C)on2)cc1	15
CN(C)CCCN(C(=O)C1COc2ccccc2O1)c1nc2ccc(F)cc2s1 (stereo not given)	14
O=[N+]([O-])c1ccc(COc2cccnc2)cc1	13
CCCC1=NN2C(=N)/C(=C\c3cc(C)n(Cc4ccccc4)c3C)C(=O)N=C2S1	18
C=CCn1c(-c2sccc2C)n[nH]c1=S	8
C=CCN1C(=O)C(O)(CC(=O)c2ccco2)c2cc(Br)ccc21 (stereo not given)	6
Cc1nn(Cc2ccc(F)cc2)c2sc(C(=O)Nc3ccc(N4CCOCC4)cc3N3CCOCC3)cc12	9
COCCNC(=O)c1n[nH]c2ccccc12	12
O=S(=O)(NCC1CCCO1)c1ccc(S(=O)(=O)N(Cc2ccc(F)cc2)Cc2ccco2)cc1 (stereo not given)	19
O=C(N/N=C/c1ccccc1Br)C1CC1	10
O=[N+]([O-])c1cc(-c2nc3nc4ccccc4nc3n2CCc2ccccc2)cc([N+](=O)[O-])c1	4
CCN(CCn1cccn1)Cc1ccccc1OCC(O)CN1CCc2ccccc2C1 (stereo not given)	13
c1ccc2cc(OCc3nc4ccccc4[nH]3)ccc2c1	14
COc1ccc(C)cc1NC(=O)C(OC(=O)C1CC1)c1ccccc1 (stereo not given)	17
COc1ccc([N+](=O)[O-])cc1NC(=O)C(C)N(C)Cc1cccc(OC)c1OC (stereo not given)	12
S=c1[nH]cc(-c2ccccc2)n1-c1cccc(Cl)c1	-6
COc1ccc(CCNC(N)=S)cc1OC	14
Cc1ccc(-c2cc(C(=O)O)c3cc(Br)ccc3n2)o1	12
COC(=O)/C=C1\S/C(=N\N=C\CC(=O)OC)NC1=O	26
COc1ccc(CC(=O)Nc2ccc3nc(SC)sc3c2)cc1OC	2
Cc1c(Br)c([N+](=O)[O-])nn1CC(=O)c1ccccc1	8
CC1(C)CC(=O)C/C(=N\NC(=O)CCc2ccc(S(=O)(=O)N3CCOCC3)cc2)C1	8
CC[N+](CC)(CC=C(C)C)CC(=O)OC	29
Cc1ccc(NC(=S)NCC2CCCO2)c(OC(F)F)c1 (stereo not given)	9
O=C(O)c1ccc(Nc2ncnc3c2cnn3Cc2ccccc2)cc1	12
CC(C)OC(=O)CC1C(=O)NCCN1C(=S)NC(=O)CCc1ccccc1 (stereo not given)	13
CC(=O)Nc1ccc(/C(C)=N/NC(=O)c2ccc(CN3CCOCC3)cc2)cc1	29
Cc1nc(/N=C(\N)N(C)C)[nH]c(=O)c1C	16
COc1cccc(/C=C2\SC(=O)N(CCC(=O)NNC(=O)c3ccccc3Cl)C2=O)c1	22

Carrying on.
SMILES	Calb biofilm kill
OCCC1CN(Cc2cc(F)ccc2-n2cccn2)CCN1C1CCCC1 (stereo not given)	15
CN=c1scc(C)n1/N=C/c1cc(Br)c(O)c(OC)c1	22
CS(=O)(=O)CC(=O)Nc1ccc2nc3n(c(=O)c2c1)CCCCC3	16
O=C(COC(=O)c1cnccn1)NCCc1ccc(Cl)cc1Cl	-6
c1ccc(CSc2ccc(-c3cccnc3)nn2)cc1	19
CC(=O)c1ccccc1OC(=O)c1c(F)cccc1F	9
COc1cc(C=O)ccc1OC(=O)c1ccncc1	2
CCCCC(=O)NNC(=S)NC(=O)CCC	9
NS(=O)(=O)c1ccc(CCNC(=O)CSc2ccc(Cl)cc2Cl)cc1	6
CC(C)CCNC(=O)C(=O)Nc1ccccc1	4
O=C(/C=C/c1ccc2c(c1)OCO2)NCc1ccncc1	11
O=C(CNS(=O)(=O)c1ccccc1)N/N=C\c1ccc(Cl)cc1	-6
Cc1cc(Nc2ccc(Cl)cc2)nc(NCc2ccccc2)n1	13
Cc1nc2ccc(C(=O)N/N=C/c3cc([N+](=O)[O-])ccc3O)cc2[nH]1	6
Cc1ccc(N2C(=O)C3C(c4ccccc4)N4CCCN4C3(C)C2=O)cc1 (stereo not given)	7
CCCC(C(=O)NC(C)(C)C)N(C(=O)c1snc(C(N)=O)c1N)c1ccc2c(c1)OCCO2 (stereo not given)	20
O=S(=O)(NCc1c(Cl)cccc1Oc1ccccc1)c1ccccc1	10
O=C(O)CC(Cc1ccc(Cl)cc1)C(=O)NCc1ccccc1 (stereo not given)	13
COc1cc(C2CC(=O)N(CC(=O)NCC3CCCO3)c3ccccc3S2)cc(OC)c1OC (stereo not given)	1
Cc1nn(C)c(Cl)c1CN1CCCC(CCC(=O)NCc2ccccc2F)C1 (stereo not given)	34
O=C(NN1C(=O)c2ccccc2NC1c1ccc([N+](=O)[O-])o1)c1ccc(Br)cc1 (stereo not given)	14
CCCC1OC23CCCCC2C(C#N)(C#N)C1(C#N)C(=N)O3 (stereo not given)	3
O=C(COC(=O)c1ccc(-c2nnc(-c3ccccc3)o2)cc1)c1ccccc1	26
O=c1c2ccccc2nc2ccc(NCc3cccs3)nn12	15
CN(C)S(=O)(=O)c1cccc(NC(=O)c2cc(=O)[nH]c3ccccc23)c1	-7
COc1cccc2sc(/N=C/N(C)C)nc12	6
CC(C)(C)C(=O)Nc1ccccc1C(=O)NCCCn1ccnc1	12
NNC(=O)COc1cccc(C(F)(F)F)c1	17
FC(F)(F)c1nc(=S)c2ccccc2[nH]1	21
N/C(=N\OC(=O)COc1ccc2ccccc2c1Br)c1ccccn1	17
C=CCn1c(SCC(=O)NCC)nnc1-c1cc2c(s1)CCC(CC)C2 (stereo not given)	14
O=C(CC1S/C(=N/N=C/c2cccs2)NC1=O)Nc1ccc(Cl)cc1 (stereo not given)	11
CC(=O)Nc1cccc(C2=CC(c3ccco3)n3ncnc3N2)c1 (stereo not given)	11
OCCC1CN(Cc2cc3c(cc2Cl)OCO3)CCN1C1CCCCC1 (stereo not given)	10
COc1ccc(-c2nn(-c3ccccc3)cc2/C=N/Nc2ccccn2)cc1	14
O=C(Cn1nnc(-c2ccc(N3CCOCC3)cc2)n1)N1CCOCC1	3
COc1cc2ncc(S(=O)(=O)c3ccccc3)c(N3CCC4(CC3)OCCO4)c2cc1OC	14
COc1cc(C)c(NC(=S)Nc2cccc(Cl)c2C)cc1OC	8
CCOC(=O)Cc1ncccc1C(=O)Nc1ccc(OC(F)(F)F)cc1	22
CCOC(=O)C1CCN(C(=O)CSc2ccc(Br)cc2)CC1	19
Fc1cccc(Cl)c1Cn1nnc2c(NCc3ccncc3)ncnc21	19
Cc1c(Br)c([N+](=O)[O-])nn1CC(=O)Nc1ccc(CC#N)cc1	14
COc1ccc(NC(=O)CCN2C(=O)c3ccncc3C2=O)cc1OC	19
COc1ccc(/C=C(/CC(=O)Nc2ccc(C)cc2)c2nc3ccccc3s2)cc1	2
O=c1c2ccccc2cnn1Cc1cccc(Br)c1	10
COc1ccc(CCNC(=S)N2CCC(C(=O)c3ccc(F)cc3)CC2)cc1OC	16
CN(C)S(=O)(=O)c1cc(NC(=O)CNCCN2CCOCC2)ccc1Cl	20
CC(C)COc1ccc(CN=C(N)N=C(N)N)cc1Cl	16
CC(C)c1ccc2c(c1)C1(NN=C(c3ccccc3)S1)C(=O)N2 (stereo not given)	8
Cc1cc(C)c(NC(=O)COC(=O)CCc2ccc(S(=O)(=O)N3CCCCC3)cc2)c(C)c1	12

Among those listed so far, seven have two or more sulfur atoms:
SMILES	Calb biofilm kill
COc1ccc(C(=O)NCc2nnc(SCC(=O)Nc3nc4ccccc4s3)o2)cc1	15
C=CCn1c(-c2sccc2C)n[nH]c1=S	8
O=S(=O)(NCC1CCCO1)c1ccc(S(=O)(=O)N(Cc2ccc(F)cc2)Cc2ccco2)cc1 (stereo not given)	19
COc1ccc(CC(=O)Nc2ccc3nc(SC)sc3c2)cc1OC	2
NS(=O)(=O)c1ccc(CCNC(=O)CSc2ccc(Cl)cc2Cl)cc1	6
C=CCn1c(SCC(=O)NCC)nnc1-c1cc2c(s1)CCC(CC)C2 (stereo not given)	14
O=C(CC1S/C(=N/N=C/c2cccs2)NC1=O)Nc1ccc(Cl)cc1 (stereo not given)	11

(next part)
SMILES	Calb biofilm kill
Cc1ccc(NC(=S)N(CCCN2CCCC2)Cc2cccn2Cc2ccc(Cl)cc2)cc1C	21
CC(O)c1cccc(NC(=O)C2CCCCC2)c1 (stereo not given)	9
Nc1ccc(CN2CCCCCC2)cc1	16
O=C(O)C1(P(=O)(c2ccc(Cl)cc2)c2ccc(Cl)cc2)CCCC1	9
Nc1nnn(CC(=O)N/N=C/c2ccccc2Cl)n1	19
Cc1ccc(C(c2nnnn2C(C)(C)C)N2CCC(C)CC2)cc1 (stereo not given)	14
O=C(N/N=C/c1ccco1)c1cc(-c2cccc(Br)c2)nc2ccccc12	10
CCC(=O)Oc1ccc2c(c1)OC1(OC(C)=O)OC(C)CC1=C2C (stereo not given)	12
NC(=S)Cc1ccccc1Cl	20
Cc1cc(O)c(NC(=O)c2cccc([N+](=O)[O-])c2)cc1C	10

Six structures from above, arranged by SMILES length, falling:
SMILES	Calb biofilm kill
Cc1ccc(NC(=S)N(CCCN2CCCC2)Cc2cccn2Cc2ccc(Cl)cc2)cc1C	21
CCC(=O)Oc1ccc2c(c1)OC1(OC(C)=O)OC(C)CC1=C2C (stereo not given)	12
Cc1ccc(C(c2nnnn2C(C)(C)C)N2CCC(C)CC2)cc1 (stereo not given)	14
Nc1nnn(CC(=O)N/N=C/c2ccccc2Cl)n1	19
CC(O)c1cccc(NC(=O)C2CCCCC2)c1 (stereo not given)	9
Nc1ccc(CN2CCCCCC2)cc1	16

More compounds
SMILES	Calb biofilm kill
CC(C)N1C(=S)SC(C)(C)C1n1oc(=O)n(-c2cccc(Cl)c2)c1=O (stereo not given)	10
CS(=O)(=O)N(CC(=O)NCc1ccncc1)C1CCCCC1	1
O=C(CNC(=O)c1ccccc1)NC1(C(=O)NC2CCCCC2)CCCCC1	7
COc1ccc(N2C(=O)C3C(c4ccc(OC)cc4O)NC(Cc4ccccc4)(C(=O)O)C3C2=O)cc1 (stereo not given)	14
CC(C)NC(=O)NC(=O)CSc1nnc(-c2ccccc2F)n1N	0
CN(CCO)c1cc(NCCCN2CCC(Cc3ccccc3)CC2)c2nonc2c1[N+](=O)[O-]	16
COc1cc([N+](=O)[O-])cc(/C=N/NC(=O)Cn2nc(C)cc2C)c1O	18
CC(=O)Oc1ccc(/C=N/NS(=O)(=O)c2ccccc2)cc1	21
CC1CN(CC(O)COC(c2ccccc2)c2ccccc2)CC(C)O1 (stereo not given)	21
O=c1[nH]c(CSc2nnnn2-c2ccccc2)nc2ccccc12	10
O=C(OCC(=O)N1CCCCCC1)c1ccc(Cl)c(S(=O)(=O)N2CCCC2)c1	-1
Cc1cccc(C(CC(=O)NCc2ccco2)c2ccccc2)c1O (stereo not given)	8
O=C(NC1=C(Nc2ccc(F)cc2)C(=O)c2ccccc2C1=O)c1ccc(Cl)cc1	-10
O=C(NCCCCc1ccccc1)c1ccc(Br)o1	10
Cc1nn(-c2ccccc2)c(Cl)c1/C=N/NC(=O)OC(C)(C)C	15
CC1CN(C(=O)c2cccs2)CC(C)O1 (stereo not given)	16
CCOP(=O)(OCC)C(Nc1ccc([N+](=O)[O-])cc1)c1ccc(Cl)cc1 (stereo not given)	13
CCCCNC(=O)c1cc(C)nn1-c1ccccc1	46
COc1ccc(C(=O)Nc2ccc(NS(=O)(=O)c3ccccc3)cc2)cc1OC	7

These rows are one share of the data. The share of hits here may be higher or lower than overall.
